D2 potentiator = human D2 receptor positive allosteric modulation. P14416. DiscoveRx D2 beta-arrestin cells, luminescence, 90 min; 100% = 57 uM dopamine signal. potentiation, % (concentration not given with the values). 360,000 tested, 0.23% active; active = potentiation of 50% or more; inconclusive = 30% to 50%; inactive = 30% or less;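 also: compound concentration not given in the record; tested on top of an EC20 dose of dopamine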
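PathHunter beta-arrestin assay in DiscoveRx D2 cells. Compounds were added with an EC20 of dopamine (50 nM final) for 90 min at 37 deg C. Luminescence was read 1 h after detection reagent, with 57 uM dopamine as the EC100 control.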
CtBP-E1A inh = CtBP/E1A binding inhibition. AlphaScreen GST-E1A/His-CtBP binding, 1536-well; stronger effect = lower value; control for the full effect not named in the record. activity change, % (concentration not given with the values). 340,000 tested, 0.49% active. AID 651724; in the data active means activity change below about -65%; inconclusive means about -30% to -65%; inactive means above about -30%; also: % is scaled to controls: 0 for no effect and ±100 for the full control effect
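In 5 uL wells, 23 nL compound meets equimolar GST-E1A and His-CtBP (5X stock 125 nM each) for 2 h, 37 °C. Beads (5X, 50 ug/mL) then 1 h, 37 °C, dark.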
Sfp PPTase inh = blocks B. subtilis Sfp PPTase activity. Q9F4F7. Biochemical Sfp PPTase activity, qHTS. Potency, µM, without a hit: max response, negative = inhibition, actives largely listed as inhibitors. 310,000 tested, 3.5% active. AID 1490; active = well fitted inhibition curve with a large enough effect; inconclusive = small, poorly fitted or top-dose-only effect, or another doubt; inactive = no such curve, though single readings can be large or run the other way;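 also: the enzyme is Sfp with the accession as filed and its product quenches rhodamine fluorescence; potency is read from the fitted curve at half-maximal effect; 0% = enzyme reaction without inhibitor and -100% = no enzyme wells; top concentration of the series not given in the record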
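Sfp 15 nM + cpd, 15 min RT; start w/ rhodamine-CoA 5 uM, BHQ-2-YbbR 12.5 uM (final); 50 mM Hepes pH 7.6, 10 mM MgCl2, 0.01% NP-40, 0.01% BSA; read 525/598 nm at 0 and 30 min.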
PINK1 expr mod = PINK1 expression modulation | PINK1 immunofluorescence, high-content cytometry, 24 h | Potency, µM (titrated, usually from 76.6 µM), inactives show at the highest dose activation (PINK1 increase), usual class: activators | 410,000 tested, 0.2% active; active = well fitted activation curve with a large enough effect; inconclusive = small, poorly fitted or top-dose-only effect; inactive = flat fitted curve, though single readings scatter; cell line not stated here;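 also: potency is read from the fitted curve at half-maximal effect; % of control where 0% means no effect; nearly all actives have a fitted effect of over 65% in size; a mitochondrial uncoupler was the plate control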
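Compound titrations (5 concentrations, 24 h) on a stable cell line; DMSO and CCCP controls. Endpoint: fixed-cell PINK1 immunofluorescence with mitochondrial, cell and nuclear markers, scanned by microplate cytometer.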
TRPV1 PAM = potentiators of human vanilloid receptor 1 (TRPV1); TRPV1-expressing cells, Fluo-8 calcium influx, capsaicin EC20 potentiation; host cell line not named in the record; control for the full effect not named in the record; 320,000 tested, 0.02% active; potentiation, % at 8.33 µM; active means potentiation above 80%; inconclusive means 30% to 80%; inactive means below 30%; also: 0% is about no effect
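TRPV1-expressing cells were cultured overnight at 35.5C and loaded with Fluo-8 calcium dye for 40 to 90 min at room temperature. After a 10 s baseline, compound was added and calcium influx was read kinetically for 3 min (ex 480/em 520 nm).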
Six1-Eya2 blk = blocks human Six1 binding to Eya2. Q15475+O00167. AlphaScreen GST-Six1/His-Eya2 binding, biochemical; stronger effect = lower value; control for the full effect not named in the record. activity change, % (no concentration beside the values). 360,000 tested, 0.56% active. AID 651725; in the data active = activity change below about -65%; inconclusive = about -30% to -65%; inactive = above about -30%; also: % is scaled to controls: 0 for no effect and ±100 for the full control effect; compound concentration not given in the record
Target sequence (O00167 whole entry, looked up): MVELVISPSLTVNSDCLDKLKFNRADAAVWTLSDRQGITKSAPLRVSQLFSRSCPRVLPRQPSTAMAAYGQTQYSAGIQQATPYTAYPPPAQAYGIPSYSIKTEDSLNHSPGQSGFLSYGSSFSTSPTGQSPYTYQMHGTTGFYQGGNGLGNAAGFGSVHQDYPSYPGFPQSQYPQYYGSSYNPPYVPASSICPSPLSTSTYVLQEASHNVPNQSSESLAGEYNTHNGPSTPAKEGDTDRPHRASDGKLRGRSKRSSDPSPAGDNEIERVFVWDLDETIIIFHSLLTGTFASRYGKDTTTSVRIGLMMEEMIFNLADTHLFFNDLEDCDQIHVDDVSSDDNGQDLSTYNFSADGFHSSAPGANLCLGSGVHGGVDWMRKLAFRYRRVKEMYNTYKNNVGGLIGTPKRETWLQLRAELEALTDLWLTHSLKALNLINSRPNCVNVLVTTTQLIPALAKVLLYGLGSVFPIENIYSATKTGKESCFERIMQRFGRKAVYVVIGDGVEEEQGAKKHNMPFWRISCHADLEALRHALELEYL
Target sequence (Q15475 whole entry, looked up): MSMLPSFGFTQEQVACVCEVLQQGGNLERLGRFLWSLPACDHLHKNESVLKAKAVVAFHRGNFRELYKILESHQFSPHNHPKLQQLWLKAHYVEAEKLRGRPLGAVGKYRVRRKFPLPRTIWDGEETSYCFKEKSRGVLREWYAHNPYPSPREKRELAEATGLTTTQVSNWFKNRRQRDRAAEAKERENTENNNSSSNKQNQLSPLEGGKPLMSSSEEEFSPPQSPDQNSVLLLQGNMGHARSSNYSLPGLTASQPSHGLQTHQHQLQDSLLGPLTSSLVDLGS
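AlphaScreen luminescence read after one hour at 37 °C in darkness. Pin-transferred compounds met GST-Six1 and His-Eya2 protein (5X stock 250 nM/500 nM) plus glutathione donor and Ni-chelate acceptor beads (5X, 50 ug/mL).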
D2 ag = human D2 receptor agonism in beta-arrestin assay; DiscoveRx PathHunter D2 beta-arrestin, luminescence, 90 min; 100% = 57 uM dopamine signal; activation, % (no concentration beside the values); 360,000 tested, 0.084% active; AID 624465; in the data active = activation above about 40%; inconclusive = about 15% to 40%; inactive = below about 15%; also: compound concentration not given in the record; the text of the record calls up to 30% inactive
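DiscoveRx PathHunter D2 beta-arrestin cells (2,100/well) attached overnight, then compound-stimulated 90 min at 37 C in HBSS/10 mM HEPES/0.1% Tween-20 buffer; beta-galactosidase complementation read by luminescence after 1 h at ambient temperature. Dopamine 57 uM final (EC100) as control.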
Active calls of the source: *; u = inconclusive; x = not tested or not shown; [ ] = dose if it differs, or a comment.

SMILES	D2 potentiator	CtBP-E1A inh	Sfp PPTase inh	PINK1 expr mod	TRPV1 PAM	Six1-Eya2 blk	D2 ag
O=C1/C(=C/c2ccc(Br)cc2)Oc2cc(O)ccc21	-4	5	7%	u	-1	9	-3.9
Cc1nc2ncc(Br)cc2[nH]1	-8	3	1%	-2.0%	0	5	1.3
CCOc1ccc(C(=O)NCC(=O)OCCCC(=O)c2ccc(F)cc2)cc1OCC	-7	-3	x	2.1%	8	-2	-2.3
O=C(COc1ncnc2sccc12)Nc1cccc(S(=O)(=O)N2CCOCC2)c1	-2	4	x	1.7%	-9	-8	1.9
CC(C)(Oc1ccc(Cl)cc1)C(=O)NC1CC1	3	-8	x	-0.8%	17	8	-1.1
Cc1ccc(C2CC(=O)Nc3cc4c(cc32)OCCO4)s1 (centres undefined)	0	0	4%	3.9%[38.3 µM]	-8	-5	0.2
O=C(Cc1ccc(Cl)c(Cl)c1)Nc1ccc2[nH]c(=O)[nH]c2c1	0	28	23%	0.1%	2	8	4.6
CCOC(=O)/C(=C/C=C1\Sc2cc(C)c(C)cc2N1CC)C(C)=O	-12	-15	16µM*	u	-5	-7	6.0
O=C(NCc1ccco1)C(c1ccccc1F)N(Cc1cccnc1)C(=O)Cn1nnc2ccccc21 (centres undefined)	-22	-10	10%	0.2%	4	2	0.6
COc1ccc(NC(=O)c2ccc(Br)o2)c([N+](=O)[O-])c1	8	-6	23%	5.8%	2	-8	0.0
COc1ccc(S(=O)(=O)N2CCCOC2CNC(=O)C(=O)NCc2ccccc2C)cc1 (centres undefined)	0	3	x	1.6%	x	-2	0.5
CCOC(=O)c1ccc(NC(=O)Cn2cccc2)cc1	-12	-10	-25%	3.4%[38.3 µM]	-11	-10	-1.9
CN=C(NC)SC1CC(=O)N(c2ccccc2)C1=O (centres undefined)	-28	-4	4%	-1.4%	-4	6	0.0
CCN(C(=O)CSc1nnc(Nc2ccc(OC)cc2)s1)C1CCS(=O)(=O)C1 (centres undefined)	-6	-4	x	1.6%	x	-10	-1.6
CSc1ccc(/C=C2\C(=N)N3N=C(CC(=O)N4CCOCC4)SC3=NC2=O)cc1	-11	-13	12%	-0.8%	1	-1	-0.8
Cn1nnnc1SCCNC(=O)C1CCC(=O)N(Cc2ccccc2F)C1 (centres undefined)	-7	x	19%	-0.9%	-22	1	4.0
CCN1C(=NCCOC)N[C@@H](c2ccccc2)[C@H](C(=O)OC)[C@H]1C	-8	-20	3%	-0.1%	14	13	-2.7
Cc1ccc(Nc2nc(COC(=O)COc3ccc(C=O)cc3)cs2)cc1	-22	1	-6%	2.3%	-4	-15	2.0
CCC(C)N(NC(C)=O)c1nc(Cl)nc(NC(C)C)n1 (centres undefined)	3	1	8%	-2.0%	-12	0	-2.1
Cc1c(C(=O)O)c(=S)sn1CCOc1ccccc1	0	0	0%	-1.1%	-8	13	-1.4

Sfp PPTase inh: hit marks shown above
canonical_smiles,D2 potentiator,CtBP-E1A inh,Sfp PPTase inh,PINK1 expr mod,Six1-Eya2 blk,D2 ag
CCOC(=O)/C(=C/C=C1\Sc2cc(C)c(C)cc2N1CC)C(C)=O,-12,-15,16µM*,u,-7,6.0

Compounds above that contain a thiophene ring, fused or not:
SMILES	D2 potentiator	CtBP-E1A inh	Sfp PPTase inh	PINK1 expr mod	TRPV1 PAM	Six1-Eya2 blk	D2 ag
O=C(COc1ncnc2sccc12)Nc1cccc(S(=O)(=O)N2CCOCC2)c1	-2	4	x	1.7%	-9	-8	1.9
Cc1ccc(C2CC(=O)Nc3cc4c(cc32)OCCO4)s1 (centres undefined)	0	0	4%	3.9%[38.3 µM]	-8	-5	0.2

Next results:
SMILES	D2 potentiator	CtBP-E1A inh	Sfp PPTase inh	PINK1 expr mod	TRPV1 PAM	Six1-Eya2 blk	D2 ag
Cc1cccc(NC(=O)C2C3CCC4C(CCC32)C4(Cl)Cl)c1 (centres undefined)	7	1	16%	29%	-7	4	1.4
CCn1cc(C(=O)N[C@H](C(=O)O)C(C)C)c(=O)c2cc3c(cc21)OCO3	-5	x	10%	2.2%	16	-6	-2.8
CCCCOc1ncnc2c1[nH]c1ccc(F)cc12	6	5	10%	x	1	0	5.8
COc1ccc2nc3oc(C(=O)N4CCN(c5ccccc5F)CC4)cc3cc2c1	7	0	10%	6.6%	-6	2	-1.3
CCNC(=O)CC1SC(=Nc2ccc(Cl)cc2)N(CC)C1=O (centres undefined)	-10	x	5%	0.8%	-6	-2	-0.1
CC(=O)Nc1ccc(C(=O)COC(=O)C2CC2)c(F)c1	2	-9	x	0.6%	u	3	-0.8
CC1Cc2cc(-c3csc(NC(=O)Cc4ccccc4)n3)ccc2N1S(C)(=O)=O (centres undefined)	-2	4	4%	x	6	-6	-0.6
COc1ccc(CC(NC(C)=O)C(=O)NC2CCN(C(=O)C3CCCCC3)CC2)cc1OC (centres undefined)	-8	5	19%	-0.5%	1	6	0.3
Cc1cc(C)cc(NC(=S)NCc2cccnc2)c1	-8	0	-4%	4.8%	-27	-4	-2.3
Cc1cc(N)cc(C)c1-c1c(Br)cc(N)cc1Br	16	-1	x	3.4%	x	-7	-2.6
Cc1nnc(NC(=O)c2ccc3c(c2)C(=O)N(CCC(C)C)C3=O)s1	-7	0	7%	4.9%[38.3 µM]	5	2	-0.7
CC(O)(c1cccc(F)c1)c1nc(-c2ccc(S(C)(=O)=O)cc2)cs1 (centres undefined)	-1	0	x	2.4%	x	-2	-3.1
CCOc1ccccc1NC(=S)N1CCCc2ccccc21	10	-2	-5%	2.2%	-7	-6	-7.2
Cc1nc2c3ccccc3nc(NNC(=O)CCC(=O)NC(C)C)n2n1	13	-5	4%	1.1%	-3	-8	3.2
Cc1c(NC(=O)C(C)OC(=O)COc2ccc(C#N)cc2)c(=O)n(-c2ccccc2)n1C (centres undefined)	-21	5	x	-1.4%	5	2	2.4
O=C(COC(=O)c1ccc(O)cc1)Nc1nccs1	-4	7	9%	-0.3%	-6	-9	1.5
COc1cc(C)ccc1OCc1cc(C(=O)N2CCCCCCC2)no1	-6	0	1%	1.2%	-5	0	5.2
CCOC(=O)c1cc(S(=O)(=O)N(C)Cc2ccccc2)cn1C	-3	11	10%	2.8%	-7	0	0.0
CCCc1cc(=O)[nH]c2nnc(SCC(=O)Nc3ccc(NC(C)=O)cc3)n12	5	-1	x	1.3%	4	-9	1.9
Cc1nc2ccc(S(=O)(=O)NCC(=O)N(C)Cc3ccccc3)cc2s1	-8	-1	22%	-0.9%	2	0	-2.6
CC(C)C[C@@H](CO)N1CCN(Cc2ccccc2)CCC1=O	-9	-2	13%	0.4%	15	2	-3.2
COc1ccccc1NC1=C(N2CCCCC2)C(=O)c2ccccc2C1=O	28	u	4%	16%	8	u	12
O=C1NC[C@H](c2ccccc2)N(CCc2cccc3ccccc23)C1=O	-6	4	8%	-2.0%	8	-8	-3.4
COC(=O)c1ccc(NC(=O)CN(c2ccc(C)cc2)S(=O)(=O)c2c(C)n[nH]c2C)cc1	-24	1	4%	-0.9%	-15	0	-2.9
CCCCCCn1nc(C(=O)N(CC(C)C)c2c(N)n(CCCC)c(=O)[nH]c2=O)c2ccccc2c1=O	-17	4	-8%	3.3%	5	-1	-5.4
CC1CN(C(=O)c2cc([N+](=O)[O-])cc([N+](=O)[O-])c2)CC(C)O1 (centres undefined)	0	2	-20%	-0.4%	-18	1	14
O=C(O)c1ccccc1SCc1cn2ccccc2n1	1	-20	-19%	2.6%	0	-11	-7.5
O=C(Cn1cnc2cc([N+](=O)[O-])ccc2c1=O)NCCc1ccc(F)cc1	23	-17	10%	0.0%	-4	-17	0.4
Cn1c(=O)[nH]c(=O)c2c1nc(N1CCCC1)n2CC(O)COc1ccccc1 (centres undefined)	0	0	-20%	4.3%	2	10	-1.2
COc1cc(C#Cc2c(-c3cncn3C)n(C)c3ccc(-c4ccc5cc[nH]c5c4)cc23)cc(OC)c1	-8	x	x	1.6%	x	-12	-0.8
CCN(CC(=O)Nc1ccc(C(=O)OC)cc1)Cc1ccccc1	-3	x	u	-0.8%	0	8	-2.2
CCCCNC(=S)Nc1ccc2[nH]c(=O)[nH]c2c1	-14	-67*	1%	-0.3%	4	6	-1.1
COc1ccc(NC(=O)N2CCn3c2nc2ccccc23)cc1	2	-3	11%	15%[38.3 µM]	-16	-7	-1.1
O=C(c1cn(-c2ccccc2)nc1-c1ccccc1)N1CCN(c2ccccn2)CC1	-18	x	8%	1.9%	26	-8	-2.0
C=CCOC(=O)C(C#N)c1nc2ccccc2nc1N1CCC(C(=O)OCC)CC1 (centres undefined)	u	-4	-6%	4.1%	-11	-1	-2.7
Cc1ccn2c(=O)c(C(=O)NCCN3CCOCC3)c(O)nc2c1	-1	1	8%	0.9%	6	6	-0.1
O=C(NCc1ccccc1)c1ccc(-c2ccc(F)cc2)o1	-14	-2	u	2.5%[38.3 µM]	-10	-5	-1.7
c1ccc(CCCNCC2COc3ccccc3O2)cc1 (centres undefined)	-18	21	0%	2.9%	-13	7	10
O=c1[nH][nH]c(=O)c2cc(N3CCCC3)ccc12	-2	-1	15%	1.5%[38.3 µM]	-1	-1	-0.7
COc1ccc(-c2nnn(CC(=O)NC(=O)NC3CCCCC3)n2)cc1OC	-2	14	x	7.6%	10	1	0.2
O=C(N/N=C/c1ccc([N+](=O)[O-])o1)c1cccc(S(=O)(=O)N2CCOCC2)c1	18	-19	-10%	6.5%	-12	-19	2.7

Compound profiles (already shown).
Listed for O=C(Cn1cnc2cc([N+](=O)[O-])ccc2c1=O)NCCc1ccc(F)cc1 : D2 potentiator = 23; CtBP-E1A inh = -17; Sfp PPTase inh = 10%; PINK1 expr mod = 0.0%; TRPV1 PAM = -4; Six1-Eya2 blk = -17; D2 ag = 0.4
Listed for CCCCNC(=S)Nc1ccc2[nH]c(=O)[nH]c2c1 : D2 potentiator = -14; CtBP-E1A inh = -67*; Sfp PPTase inh = 1%; PINK1 expr mod = -0.3%; TRPV1 PAM = 4; Six1-Eya2 blk = 6; D2 ag = -1.1

Assay outcomes: PubChem BioAssay, National Center for Advancing Translational Sciences (NCATS)
